Assay outcomes from PubChem.
CtBP-E1A blk = blocks the CtBP interaction with E1A | activity change, % (no concentration beside the values) | 340,000 compounds, 0.49% hits | AlphaScreen GST-E1A/His-CtBP binding, 1536-well; active compounds read low; control for the full effect not named in the record; in the data active means activity change below about -65%; inconclusive means about -30% to -65%; inactive means above about -30%; note: % is set by controls: 0 for no effect and ±100 for the full control effect
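Steps: dispense buffer (Tris pH 8.0, NaCl 300 mM, TCEP 1 mM, BSA, Tween 20); add 5X protein mix (GST-E1A, His-CtBP, 125 nM each); pin 23 nL compound; 2 h at 37 °C, dark; add 5X beads (50 ug/mL); 1 h; read.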
ClpP mod = qHTS Assay for Activators of ClpP; ATP-dependent Clp protease proteolytic subunit (Bacillus subtilis (strain 168)), P80244; purified B. subtilis ClpP, FRET peptide cleavage, 20 min; Potency, µM (doses to about 57.5 µM), for the others: at the top dose activity change, negative = active; 340,000 compounds, 1.9% hits; AID 651965, 2013; active = well fitted falling curve with a large enough effect; inconclusive = small, poorly fitted or top-dose-only effect; inactive = no such curve, though single readings can be large or run the other way; note: potency is the fitted concentration of half-maximal effect; the source files actives as falling curves though it sought activators and does not explain the sign; nearly all actives have a fitted effect of over 65% in size; many hits overshoot -100%
Target sequence (P80244 whole entry, looked up): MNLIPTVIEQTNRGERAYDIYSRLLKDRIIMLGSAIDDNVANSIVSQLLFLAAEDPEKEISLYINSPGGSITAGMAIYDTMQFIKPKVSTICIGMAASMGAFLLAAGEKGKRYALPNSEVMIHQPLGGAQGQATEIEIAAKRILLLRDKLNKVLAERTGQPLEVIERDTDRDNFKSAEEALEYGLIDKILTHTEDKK
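Buffer: 100 mM Tris/HCl pH8, 100 mM KCl, 0.05% low protease BSA, 2.5% glycerol, 0.01% Tween-20. ClpP 10 microg/mL final; 20 min RT; delta FRET normalized to ADEP and DMSO controls.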
gsp agonist = activates gsp, the McCune-Albright syndrome mutation | gsp mutant cells, cAMP HTRF, 30 min; control for the full effect not named in the record | AID 624287 | Potency, µM (doses to about 76.9 µM), for the others: top-dose activation (cAMP increase), actives largely listed as activators | 340,000 compounds, 0.13% hits; active = well fitted activation curve with a large enough effect; inconclusive = small, poorly fitted or top-dose-only effect, or another doubt; inactive = no such curve, though single readings can be large or run the other way; cell line not stated here;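 note: phosphodiesterase inhibitor Ro 20-1724 added with compounds to block cAMP breakdown; potency is the fitted concentration of half-maximal effect; nearly all actives have a fitted effect of over 60% in size; about a fifth of the inactives were tested at one dose only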
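Cells stably selected in G418 were plated at 2000/well, grown 16-24 hr, then given compounds in DMSO with the PDE inhibitor […] (300 uM solution added) for 30 min at 37C; cAMP was read by HTRF.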
Menin MLL FP FL = displaces fluorescein MLL peptide from human menin | Fluorescence polarization, fluorescein-MLL peptide displacement from menin | FP activity change, % at 61.4 µM | 290,000 tested, under 10 active; inconclusive = falling polarisation curve, or a change in total fluorescence; inactive = total fluorescence flat and polarisation flat or rising; no compound was filed as active; the % refers to the polarisation; negative = inhibition;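 note: % of control where 0% means no effect; inhibitors lower the polarisation; unlabelled MLL peptide was the positive control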
Sfp PPTase inh = blocks B. subtilis Sfp PPTase activity; Q9F4F7; Biochemical Sfp PPTase activity, qHTS; Potency, µM, inactives show max response, negative = inhibition, most hits filed as inhibitors; 310,000 compounds, 3.5% hits; AID 1490; active = well fitted inhibition curve with a large enough effect; inconclusive = small, poorly fitted or top-dose-only effect, or another doubt; inactive = no such curve, though single readings can be large or run the other way;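 note: the enzyme is Sfp with the accession as filed and its product quenches rhodamine fluorescence; potency is the fitted concentration of half-maximal effect; 0% = enzyme reaction without inhibitor and -100% = no enzyme wells; top concentration of the series not given in the record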
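Fluorescence-quenching assay: 15 nM Sfp-PPTase preincubated 15 min at room temperature with compound, then 5 uM rhodamine-CoA and 12.5 uM BHQ-2-labelled YbbR peptide added. Fluorescence (ex 525/em 598 nm) read at start and after 30 min; difference gives rate.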
TRPV1 potentiator = human TRPV1 potentiation; Q8NER1; TRPV1-expressing cells, Fluo-8 calcium influx, capsaicin EC20 potentiation; host cell line not named in the record; control for the full effect not named in the record; potentiation, % at 8.33 µM; 320,000 compounds, 0.02% hits; AID 540277; active means potentiation above 80%; inconclusive means 30% to 80%; inactive means below 30%; note: 0% is about no effect
Target sequence (Q8NER1 whole entry, looked up): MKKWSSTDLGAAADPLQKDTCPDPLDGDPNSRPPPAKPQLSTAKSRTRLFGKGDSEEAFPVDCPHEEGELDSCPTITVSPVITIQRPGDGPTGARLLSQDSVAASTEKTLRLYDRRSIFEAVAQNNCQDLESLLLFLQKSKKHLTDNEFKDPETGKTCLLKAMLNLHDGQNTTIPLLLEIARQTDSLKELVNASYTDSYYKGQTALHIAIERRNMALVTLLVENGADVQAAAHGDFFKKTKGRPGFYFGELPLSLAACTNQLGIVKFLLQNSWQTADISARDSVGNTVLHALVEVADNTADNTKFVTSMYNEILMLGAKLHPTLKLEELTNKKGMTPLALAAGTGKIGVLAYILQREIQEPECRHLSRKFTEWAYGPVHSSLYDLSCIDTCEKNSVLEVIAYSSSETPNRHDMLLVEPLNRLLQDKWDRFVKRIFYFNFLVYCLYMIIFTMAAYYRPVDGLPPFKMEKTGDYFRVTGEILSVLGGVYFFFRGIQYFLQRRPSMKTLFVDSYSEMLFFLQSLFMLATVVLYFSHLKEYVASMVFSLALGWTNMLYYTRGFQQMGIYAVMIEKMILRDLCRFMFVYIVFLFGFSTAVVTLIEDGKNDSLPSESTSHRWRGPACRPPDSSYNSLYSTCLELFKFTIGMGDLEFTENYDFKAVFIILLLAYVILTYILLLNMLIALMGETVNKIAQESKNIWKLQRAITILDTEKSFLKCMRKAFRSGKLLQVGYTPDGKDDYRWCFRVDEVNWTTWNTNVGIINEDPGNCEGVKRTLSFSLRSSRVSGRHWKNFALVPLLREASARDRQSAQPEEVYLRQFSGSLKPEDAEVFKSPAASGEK
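Fluo-8 calcium influx in TRPV1-expressing cells, kinetic read (ex 480/em 520 nm). Compound added and read 3 min for agonist activity, followed by capsaicin at EC20 final and 2 min further read for enhancement.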
gsp antagonist = antagonizes gsp, the McCune-Albright syndrome mutation. gsp-mutant cells, cAMP HTRF, 30 min; control for the full effect not named in the record. Potency, µM (series often up to 76.9 µM), inactives show at the top dose activity change, negative = inhibition, usual class: inhibitors. 340,000 compounds, 0.4% hits. AID 624288; active = falling curve of any shape with a large fitted effect; inconclusive = falling curve, mostly with a smaller effect; inactive = flat or rising curve; cell line not stated here;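 note: intracellular cAMP measured with PDE inhibitor Ro 20-1724 present during compound exposure; potency is the fitted concentration of half-maximal effect; % is set by controls: 0 for no effect and ±100 for the full control effect; nearly all actives have a fitted effect of over 65% in size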
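Measurement of cellular cAMP by homogeneous time-resolved fluorescence following a 30 min compound exposure at 37C. The PDE inhibitor […] was present throughout; the assay buffer was DPBS with 0.05% BSA and 0.005% Tween 20.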
* hit, by the source's call; ? = inconclusive; / = no result given; & = joins results of further samples; [ ] = dose if it differs, or a comment. Rows are unselected; about 5.3% have a hit in one of these screens.

Below each SMILES – gsp antagonist	Menin MLL FP FL	ClpP mod	Sfp PPTase inh	TRPV1 potentiator	gsp agonist	CtBP-E1A blk
Cc1cc(C)n(-c2nnc(NCc3ccc(Cl)cc3)nn2)n1
→ 5%	0.5	/	14%	16	?	-11
COC(=O)c1cc(NC(=O)CSc2nncn2C)cc(C(=O)OC)c1
→ 9%	4.9	0.6%	9%	-13	3%	-5
CCOC(=O)c1sc2ncn(C(C)C(=O)OCC)c(=O)c2c1C (configuration not stated)
→ 8%	1.2	0.8%	-2%	0	11%	-1
O=C(CSc1ncccn1)NCCC1=CCCCC1
→ 10%	/	/	/	1	7%[15.4 µM]	6
CCn1c(CC(=O)Nc2cccc(OC)c2)nnc1SCC(=O)Nc1nccs1
→ -6%	1.5	-0.8%	0%	18	-33%[inhibitor]	-6
CCCN1CCN(CC(=O)Nc2nncs2)CC1
→ 10%	-1.0	-0.1%	-22%	1	14%	5
COc1ccc(NC(=O)CN(C)CC(=O)Nc2ccc(Cl)c(S(=O)(=O)N(C)C)c2)cc1
→ -3%	-0.3	/	11%	9	18%	3
O=C(COc1ccccc1)Nc1ccc(N2CCN(C(=O)c3cccs3)CC2)cc1
→ -5%	-6.9	/	19%	-2	6%[15.4 µM]	4
CCC1CN(C(=O)N2CCC(C(=O)NCCc3ccccc3OC)CC2)c2ccccc2O1 (configuration not stated)
→ -20%	/	0.7%	6%	-1	?	4
CCNC(=S)N/N=C/c1c(Cl)cccc1Cl
→ 3%	3.6	0.3%	11%	7	-25%	/
CC(C)c1ccc(NC(=O)CCC(=O)NCc2ccco2)cc1
→ -7%	-3.9	0.2%	11%	-14	0%[15.4 µM]	0
C[C@@H]1CN([C@@H](C)CO)C(=O)c2cc(Br)cnc2O[C@H]1CN(C)C(=O)Nc1ccc2c(c1)OCO2
→ /	/	-0.9%	/	/	13%	5
Cc1ccc(CNC(=O)CCNS(=O)(=O)c2ccc(C)cc2)cc1
→ ?	3.7	0.1%	5%	17	-13%	4
CC(Oc1cccc(Cl)c1)C(=O)N1CCN(c2ncccn2)CC1 (configuration not stated)
→ 6%	/	-21%	/	-5	22%	2
O=C(NCCCn1ccnc1)c1ccc(COc2ccccc2)o1
→ 5%	/	1.9%	/	-1	-5%	5
COc1ccc(Cn2c(O)c(C=Nc3ccc(C)cc3)c3ccccc3c2=O)cc1
→ -13%	5.7	144%	?	?	22%	8
O=C(C1CCC1)N1CCCc2cc(S(=O)(=O)N3CCN(c4ccccc4)CC3)ccc21
→ -13%	4.7	-2.5%&-5.3%	16%	4	3%	-10
CCCCOC(=O)CCNc1n[nH]c(=O)[nH]c1=O
→ 13%	2.7	-0.5%	4%	-2	-18%	6
Cc1cccc(C)c1NC(=O)CNC(=O)c1cccc(S(=O)(=O)NCc2cccs2)c1
→ -2%	/	-0.3%	/	7	-47%[inhibitor]	0
O=C(Nc1ccncc1)c1cccc(S(=O)(=O)N2CCc3ccccc32)c1
→ -22%	/	/	/	7	10%[15.4 µM]	7
O=[N+]([O-])c1cccc(N/N=C/c2cccc3ccccc23)c1
→ -11%	2.3	-11%	-2%	0	19%	-2
O=C(Cn1nc([N+](=O)[O-])nc1Br)NC(c1ccccc1)c1ccccc1
→ 9%	-0.2	-2.9%	-1%	5	-21%	-1
Brc1cc2c(cc1Cn1c(-c3cncs3)nc3ccccc31)OCO2
→ -11%	-3.2	39%	18%	7	?	-1
O=C(c1ccc(-n2cccc2)cc1)N1CCCCC1
→ 5%	0.4	/	-5%	0	27%[15.4 µM]	3
Cc1ccc(S(=O)(=O)CCC(=O)OCC(=O)N(C)CC(=O)Nc2ccc(F)cc2)cc1
→ -13%	/	/	/	6	-14%[15.4 µM]	6
O=S(=O)(N/N=C/c1c(F)cccc1Cl)c1ccccc1
→ -2%[15.4 µM]	2.8	-0.1%	-5%	-27	-10%	4
O=C(NNS(=O)(=O)c1ccccc1F)c1ccccc1-n1cccc1
→ 5%	/	-3.3%	9%	-1	-13%	-2
CCn1c(SCC(=O)NCCc2ccc(OC)c(OC)c2)nc2c1c(=O)n(C)c(=O)n2C
→ 2%	-0.5	?	13%	10	26%	14
CCOC(=O)c1[nH]c(C)c(C(=O)NCc2ccc(OC)cc2)c1C
→ 3%	0.9	2.8%	30%[activator]	13	-8%	-1
O=C(CCN1CCOCC1)N1CCCC(Nc2cccc(F)c2)C1 (configuration not stated)
→ -7%	-1.6	1.8%	16%	-2	?	0
COc1ccc(Cn2c(=O)oc3ccccc32)cc1OC
→ /	/	-3.0%	/	/	3%	-22
CC1CCCCN1C(=O)CSc1nc2c(c(=O)n(C)c(=O)n2C)n1C (configuration not stated)
→ -4%	0.1	/	11%	-8	?	0
COc1nccnc1NS(=O)(=O)c1ccc(NCc2ccccc2O)cc1
→ -9%	1.5	/	17%	3	-8%[15.4 µM]	-18
Cc1c(NC(=O)Nc2ccccc2)cccc1[N+](=O)[O-]
→ 4%	0.8	-2.4%	-17%	-21	-1%[15.4 µM]	-5
CSc1nsc(NC(=O)Nc2ccccc2)n1
→ -11%	/	3.8%	/	/	-41%[inhibitor]	6
CCn1cc(/C=C(\NC(=O)c2cc(OC)c(OC)c(OC)c2)C(=O)N2CCOCC2)c2ccccc21
→ /	/	0.4%	/	/	-14%	5
COc1ccccc1/C=C(/C(=O)OCC(=O)Nc1ccccc1C(C)C)c1ccccc1
→ ?	1.4	-2.1%	14%	0	-26%	/
CCc1c(C)nc2ncnn2c1N1CCCC(C(=O)Nc2ccc(NC(C)=O)cc2)C1 (configuration not stated)
→ -13%	0.7	-2.3%	11%	10	-38%[inhibitor]	0
CC(C)N=C(Nc1ccccc1)c1cccnc1
→ 2%	0.1	1.1%	12%	/	0%	-1
CCOC(=O)c1c(N)sc2c1CCN(CCc1ccccc1)C2
→ 5%	2.2	?	1%	8	-21%	/
Cc1ccc(CCNC(=O)C2CCC(=O)N2Cc2cccnc2)cc1 (configuration not stated)
→ 8%	0.3	-2.3%	-1%	-4	-4%	-2
c1ccc(-c2nnc(N3CCOCC3)c3ccccc23)cc1
→ -1%	-0.8	/	15%	-5	-6%[15.4 µM]	3
COc1ccc(/C(O)=C2/C(=O)C(=O)N(CCCN(C)C)C2c2ccccc2)cc1OC (configuration not stated)
→ 14%	0.7	1.3%	7%	16	27%	2
CCc1cccc(NC(=O)c2ccc3c(=O)n4c(nc3c2)CCCCC4)c1
→ ?	4.5	0.3%	9%	-1	?	-15
COc1ccc(-n2c(C)nc3sc4c(c3c2=O)CCCC4)cc1
→ /	2.7	/	9%	-19	/	/
O=C(Cn1cnc2c(nnn2Cc2ccc(F)cc2)c1=O)N1CCCCC1
→ 10%	2.7	-7.9%	9%	-7	-7%	5
CCCn1nc(C(=O)NNC(=O)c2cccc(C)c2)c2ccccc2c1=O
→ -6%	/	1.9%	/	/	-1%[15.4 µM]	6
O=C(COCc1cc(-c2ccc3c(c2)OCO3)on1)N1CCN(c2cccc(Cl)c2)CC1
→ 3%	-3.9	-1.7%&-2.3%	-5%	-2	?	6
CCOCCCNC(=O)C(Cc1ccccc1)NS(=O)(=O)c1cccc2nsnc12 (configuration not stated)
→ 7%	2.7	-1.5%	10%	-9	?	-1
COc1ccc(C)cc1S(=O)(=O)n1cnc(C)c1
→ 7%	-7.0	2.1%	10%	-3	13%[15.4 µM]	-2
CCCCCOc1ccc(NC(=O)C(=O)NCC2CCCN2CC)cc1 (configuration not stated)
→ 14%	-1.7	/	10%	13	9%[15.4 µM]	/
CCCc1c(C(=O)N/N=C/c2c[nH]c3ccccc23)nnn1-c1nonc1N
→ /	/	-8.7%	/	/	?	3
CCC1CCCCN1CCCNC(=O)CSc1nc2nc(C)c(Cc3ccccc3)c(C)n2n1 (configuration not stated)
→ 4%	-0.8	/	-2%	-14	20%[15.4 µM]	0
O=C(CCCn1c(=S)[nH]c2cc3c(cc2c1=O)OCO3)N1CCN(c2ccccc2F)CC1
→ -19%	-0.1	0.5%	10%	5	-13%	4
Cc1ccc(OCC(=O)Nc2ccc([N+](=O)[O-])cc2)cc1
→ 2%	-0.2	-0.8%	8%	-11	17%	6
Cc1cc(-c2ccc(S(=O)(=O)NCc3ccc(Cl)cc3)cc2)on1
→ /	/	-1.7%	/	/	8%	1
CCCCCC(=O)N1C[C@@H](O)[C@H](n2cc(-c3ccc(F)cc3)nn2)C[C@@H]1c1ccc(Cl)cc1
→ /	/	-0.4%	/	/	-124%[inhibitor]	0
CCC(CC)C(=O)NCCN1CCN(C(=O)C(CC)CC)CC1
→ 4%	-0.2	-3.0%	12%	8	-17%	-2
Cc1onc(-c2ccccc2)c1C(=O)n1cccn1
→ 3%	4.9	-0.4%	18%	3	-12%	7
CCN(CC)S(=O)(=O)c1cccc(NN=c2c(=O)c3ccccc3c2=O)c1
→ 7%	7.3	/	4%	8	-9%[15.4 µM]	-9

The list continues:
Below each SMILES – gsp antagonist	Menin MLL FP FL	ClpP mod	Sfp PPTase inh	TRPV1 potentiator	gsp agonist	CtBP-E1A blk
CC(C)COC(=O)Nc1nnc(SCCOc2ccccc2)s1
→ -8%	-1.0	0.7%	6%	17	0%	3
CC12CCC(=O)N1C(C(=O)N1CCN(S(=O)(=O)c3cccc(Cl)c3)CC1)CS2 (configuration not stated)
→ 5%	/	/	/	19	34%[15.4 µM]	5
COc1cc(SC)ccc1C(=O)NCCc1ccccc1
→ -12%	3.5	?	-4%	21	?	11
O=C(CSCc1c(F)cccc1Cl)NCCSCc1ccco1
→ -2%	-2.7	/	6%	-5	-3%	-3
